# Source: PubChem BioAssay (ICCB-Longwood Screening Facility, Harvard Medical School)
# Sa RN4220 lethal – growth inhibition of S. aureus RN4220, primary screen, OD600 | inhibition, % (concentration not given with the values) | 16 h | AID 1259311, 2017 | hit rate 0.33% among 330,000;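 active = z-score of -3 or lower and OD600 up to 0.18 on both plates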;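 also: plate controls were untreated cells for no effect and reference antibiotic for full effect; stock transfer was 100 nL into about 80 µL; one replicate is shown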
# ugtP null kill – growth inhibition of ugtP-null S. aureus, primary screen, RN4220 ugtP deletion, OD600; 16 h; some inactives read as strong as hits; growth inhibition, % (test concentration not listed); hit rate 0.54% among 330,000;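 active = z-score under -3 and OD600 up to 0.15 on both plates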;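 also: plate controls were untreated wells for no effect and antibiotic for full effect; wells of about 80 µL received 100 nL stock; the first replicate is given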
# * = called active by the depositor. Only part of the results is shown; count on the stated rates, not on these rows.
# The opening 20 compounds, to show the layout:
SMILES,Sa RN4220 lethal,ugtP null kill
Cc1ccc(C=NNC(=O)C2COc3cc4ccccc4cc3O2)o1 (stereo unspecified),6.6,-2
CC(=NNC(=O)c1nn(C)cc1Br)c1cccc(NC(=O)C2CCCC2)c1,-11,3
Nc1nonc1-n1nnc(C(=O)NN=Cc2cccc(Cl)c2)c1CN1CCCC1,4.6,-14
ON=C(CN(O)/C=C1/C=CC=N1)c1cccs1,2.1,7
COCCNC(=S)NN=Cc1ccccc1C(=O)O,4.0,9
CC(=NNC(=S)NC(C)C)c1ccc(-n2ccnc2)cc1,0.2,0
CC(SCc1ccccc1)C(=O)NN=Cc1cc2c(cc1Br)OCO2 (stereo unspecified),-3.1,-6
COc1cccc(C=NNc2nn3cnnc3c3ccccc23)c1,0.3,1
COc1ccc(C=NN2CCN(C)CC2)cc1O,-6.6,-4
Cc1cccc(CN(CC(=O)NN=Cc2cccs2)S(=O)(=O)c2ccc(Cl)cc2)c1,-7.5,-21
CC(/C=C/c1ccccc1)=NO,4.0,3
COc1cc(C=NNC(N)=S)ccc1OCC(=O)Nc1ccc(C)cc1,0.7,-1
CC(C)C(Nc1nc(-c2ccccc2)nc2c1oc1ccccc12)C(=O)O (stereo unspecified),9.0,-15
COc1ccc(C=NNC(=O)CSc2nnc(C)n2-c2ccccc2)c(OC)c1OC,5.0,-5
O=C(NN=C/C=C/c1ccccc1)c1cnccn1,0.4,-1
CC1=CC2C=C(C)C(C)C3C(CC(C)C)NC(=O)C23C(=O)C=CC(O)C(O)CC1 (stereo unspecified),2.9,-1
CC(=NOC(=O)c1ccc(C)cc1)c1cccs1,3.2,37
COc1ccc(C=NNC(=O)C(C)n2nnc3ccccc32)cc1OC (stereo unspecified),-1.9,-6
CCOC(=O)c1c(N=CN(C)C)sc2c1CCC2,7.9,2
COc1ccc(C(=O)ON=C(C)c2cccs2)cc1,0.3,6

# Results (from the top)
SMILES,Sa RN4220 lethal,ugtP null kill
Cc1ccc(C=NNC(=O)C2COc3cc4ccccc4cc3O2)o1 (stereo unspecified),6.6,-2
CC(=NNC(=O)c1nn(C)cc1Br)c1cccc(NC(=O)C2CCCC2)c1,-11,3
Nc1nonc1-n1nnc(C(=O)NN=Cc2cccc(Cl)c2)c1CN1CCCC1,4.6,-14
ON=C(CN(O)/C=C1/C=CC=N1)c1cccs1,2.1,7
COCCNC(=S)NN=Cc1ccccc1C(=O)O,4.0,9
CC(=NNC(=S)NC(C)C)c1ccc(-n2ccnc2)cc1,0.2,0
CC(SCc1ccccc1)C(=O)NN=Cc1cc2c(cc1Br)OCO2 (stereo unspecified),-3.1,-6
COc1cccc(C=NNc2nn3cnnc3c3ccccc23)c1,0.3,1
COc1ccc(C=NN2CCN(C)CC2)cc1O,-6.6,-4
Cc1cccc(CN(CC(=O)NN=Cc2cccs2)S(=O)(=O)c2ccc(Cl)cc2)c1,-7.5,-21
CC(/C=C/c1ccccc1)=NO,4.0,3
COc1cc(C=NNC(N)=S)ccc1OCC(=O)Nc1ccc(C)cc1,0.7,-1
CC(C)C(Nc1nc(-c2ccccc2)nc2c1oc1ccccc12)C(=O)O (stereo unspecified),9.0,-15
COc1ccc(C=NNC(=O)CSc2nnc(C)n2-c2ccccc2)c(OC)c1OC,5.0,-5
O=C(NN=C/C=C/c1ccccc1)c1cnccn1,0.4,-1
CC1=CC2C=C(C)C(C)C3C(CC(C)C)NC(=O)C23C(=O)C=CC(O)C(O)CC1 (stereo unspecified),2.9,-1
CC(=NOC(=O)c1ccc(C)cc1)c1cccs1,3.2,37
COc1ccc(C=NNC(=O)C(C)n2nnc3ccccc32)cc1OC (stereo unspecified),-1.9,-6
CCOC(=O)c1c(N=CN(C)C)sc2c1CCC2,7.9,2
COc1ccc(C(=O)ON=C(C)c2cccs2)cc1,0.3,6
COc1ccccc1C(=O)ON=C(C)c1ccc(N2C(=O)C3CCCCC3C2=O)cc1 (stereo unspecified),2.8,4
CN(C)c1ccnc(-n2cccc2C=NOCc2ccccc2)c1C#N,0.7,8
FC(F)(F)c1nc2ccccc2nc1NN=Cc1c(Cl)cccc1Cl,3.1,-15
CC(=NOC(=O)c1ccc(F)cc1)c1sc(-c2ccccc2)nc1C,-0.6,-1
CON=Cc1ccc(Oc2ccc(C)cc2)nc1,-3.9,-1
CCN(CC)c1ccc(C=NNC(=O)OC)c(O)c1,2.5,-4
Cc1ccccc1OCC(=O)NCC(=O)NN=Cc1ccc(Br)o1,1.5,-2
CC(=NOc1nc(C)cc(C)n1)c1ccccc1,1.3,2
C=C1CCC(C)C(C)(CCC2=CCOC2=O)CC=CC=C1C(=O)O (stereo unspecified),10,9
Cc1ccc(C=NNc2nc(Cl)c(Cl)cc2Cl)s1,1.5,3
CC(=NOC(=O)c1cccc(C(F)(F)F)c1)c1sc(-c2ccccc2)nc1C,-4.6,-3
COc1ccc(C=NNS(=O)(=O)c2ccc(C)cc2)cc1OC(=O)c1ccc(C)cc1,-6.4,-5
Cc1cccc(NC(=NS(=O)(=O)c2ccccc2)C(F)(F)F)c1,-0.3,-2
CC1(C)CC(=O)CC(=NNC(=O)CCCOc2ccc(Cl)cc2Cl)C1,-4.0,-7
Cc1cc(C(=O)NN=Cc2ccccc2Br)no1,27,-3
CC(C)C(=O)NN=Cc1ccc(OCc2ccccc2)cc1,1.4,-15
COc1cc2c(cc1OC)C1CC(=NO)C(CC(C)C)CN1CC2 (stereo unspecified),7.3,3
COc1cc(C=C2SC(=O)N(Cc3ccccc3Cl)C2=O)ccc1OCc1ccncc1,2.1,-9
CCOc1cc(C=NO)cc(Cl)c1OC,4.0,0
O=S(=O)(c1ccccc1)c1ccccc1C=NO,6.7,6
C=CCOc1cccc(C=NNC(=O)C(=O)NCc2ccco2)c1,3.3,4
COc1cc(C=NN2CCN(C3c4ccccc4-c4ccccc43)CC2)ccc1O,-13,-8
CCn1cc(C=NNS(=O)(=O)c2ccc(OC)cc2)c(C)n1,7.2,7
CC(=NNS(=O)(=O)c1ccc(C)cc1)c1cccc(NC(=O)c2cccc(Cl)c2)c1,-8.5,6
Cc1cccc(OCCOc2ccc(C=NNC(=O)Cc3nnc(N)s3)cc2)c1,2.2,-9
Cc1cc(C=Nn2cnnc2)c(C)n1-c1ccc(OCc2ccc(Cl)cc2)cc1,-5.9,-15
Nc1nnnn1N=Cc1ccccc1C(F)(F)F,0.6,0
O=C(NN=Cc1ccc(-c2ccccc2[N+](=O)[O-])o1)C1COc2cc3ccccc3cc2O1 (stereo unspecified),-0.5,-16
Cc1ccsc1C=NNc1ncc(Cl)cc1Cl,7.1,2
Cc1ccc(-c2ccc(C=NNC(=O)C3C(=O)NCC3c3ccccc3)o2)cc1Cl (stereo unspecified),10,0
# (cont.)
SMILES,Sa RN4220 lethal,ugtP null kill
COc1ccccc1-c1nc2sc(=Cc3cccs3)c(=O)n2n1,4.8,6
COc1ccccc1C1C2=C(N=c3sc(=Cc4cccc(OCC(=O)O)c4)c(=O)n31)c1ccccc1CC2 (stereo unspecified),6.6,20
CCC(=O)Nc1ccc(C(C)=NNC(=O)c2ccc(C)s2)cc1,3.7,4
Cc1ccc(C(=O)NN=Cc2ccc[nH]2)cc1[N+](=O)[O-],0.8,5
COc1ccc(CCN2C(=O)C3C4CC(C5C(C(=O)NN=Cc6ccc(Cl)cc6)=NOC45)C3C2=O)cc1OC (stereo unspecified),0.6,3
Cc1ccn2c(C=NOCc3ccc(F)cc3)c(-c3ccc(Cl)cc3)nc2c1,-6.7,-8
CCOC(=O)C(C#N)=c1sc(=C2C=Cc3ccccc3N2CC)c(=O)n1CC,-1.4,5
Cn1ncc(C#N)c1N=CN1CCCCC1,1.5,4
ON=C1CCCCC1c1ccccn1 (stereo unspecified),2.6,1
CC(C)N=c1scc(-c2cccs2)n1N=Cc1ccc(O)c(O)c1O,28,79
CCOC(=O)C=c1sc(=Cc2c(OCC)ccc3ccccc23)c(=O)n1CC(=O)NCC1CCCO1 (stereo unspecified),-2.1,3
Cc1ccc(-n2c(C)cc(C=NNC(=O)CN(c3ccc(C)cc3C)S(C)(=O)=O)c2C)cc1,-5.4,-17
CC(/C=C/c1ccc(O)cc1)=NO,-1.7,0
Clc1ccc(Sc2ccc(C=Nn3cnnc3)o2)cc1,-0.8,-5
CC(=NOc1nc(C)cc(C)n1)c1ccc(Br)cc1,0.7,-2
CN1CCN(CCC(=O)NN=Cc2cc([N+](=O)[O-])ccc2O)CC1,89*,79
ON=Cc1cc(Br)cc(Br)c1OCc1ccccc1,-12,91*
CCOc1ccccc1C=NNC(=O)c1nnn(-c2nonc2N)c1CN1CCCCCC1,5.5,3
Cc1ccc(S(=O)(=O)NN=Cc2c(C)nn(-c3ccccc3)c2C)cc1,2.2,-1
CC(=NOC(=O)c1ccc(Cl)c(Cl)c1)c1sc(C)nc1C,0.6,0
CC(=NOC(=O)N(C)C)c1ncc(C(F)(F)F)cc1N1CCOCC1,-0.3,2
Cc1c(N=C2SCC(=O)N2N=Cc2ccccc2Cl)c(=O)n(-c2ccccc2)n1C,3.4,15
Cc1ccc(Oc2ccc(C=NO)cn2)cc1,-1.7,0
Cn1c(=O)[nH]c(=O)c2c1nc(NC1CCCCC1)n2CC(=O)NC1CCCCC1,-0.5,1
Cc1ccccc1NC(=O)C(C)ON=Cc1cccc([N+](=O)[O-])c1 (stereo unspecified),4.1,6
Brc1cc2c(cc1C=NNc1nc3ccccc3s1)OCO2,-10,-10
O=C(NN=Cc1ccc(Cl)cc1)c1cc2c(s1)-c1ccccc1CC2,-14,-20
O=c1c2c(O)cc(O)cc2oc2ccc(O)c(OC3OC(CO)C(O)C(O)C3OC3OC(CO)C(O)C(O)C3O)c12 (stereo unspecified),1.8,-4
C(=Cc1ccccc1)C=NNc1nc(N2CCCCC2)nc(N2CCCCC2)n1,3.7,-8
ON=Cc1ccccc1OCc1ccccc1Cl,8.7,22
NC(=S)NN=Cc1cc([N+](=O)[O-])ccc1OCCOc1ccccc1,1.4,-8
CCC(CC)=NN=Cc1c(O)n(CC)c2cc(C3=NNC(=O)CC3)ccc12,-1.0,-1
CC(CC1(O)C(=O)Nc2ccccc21)=NO (stereo unspecified),4.8,3
Cc1nn(C)c(C)c1C=NN=C1CCC2C3CCc4cc(O)ccc4C3CCC12C (stereo unspecified),-7.9,-5
NC(=O)COc1ccc(C=NNC(=O)C2CCCN2S(=O)(=O)c2ccc(Cl)cc2)cc1 (stereo unspecified),0.7,-4
CCOC(=O)C1=C(N)n2c(sc(=Cc3ccco3)c2=O)=C(C(=O)OC(C)C)C1c1ccco1 (stereo unspecified),1.4,28
COc1ccc(Br)cc1C=Nn1c(C)nnc1C,8.4,4
Cc1ccc(S(=O)(=O)NC(C(=O)N2CCC3(O)CCCCC3C2)c2ccccc2)cc1 (stereo unspecified),5.8,4
CC(=NN1CCN(C2c3ccccc3-c3ccccc32)CC1)c1ccncc1,3.4,6
Cc1ccc(C=NNC(=O)CC2N=C(Cc3ccccc3)NNC2=O)cc1 (stereo unspecified),-0.1,4
CCOC(=O)C(CCCN(CC)CC)=NO,3.2,6
C=CCON=C(C)c1c(O)c(C)c(-c2ccccc2)n(-c2ccccc2)c1=O,6.8,4
COc1cc(C=NNC(=O)C2C(=O)NCC2c2ccccc2)cc(OC)c1O (stereo unspecified),0.4,-3
O=C(CON=Cc1ccccc1)N1c2ccccc2Oc2ccccc21,-3.9,33
Cc1sc2nc(CN(CCc3ccccc3)C(=O)c3ccco3)[nH]c(=O)c2c1C,1.4,1
O=C(NN=Cc1c[nH]c2ccc(Br)cc12)c1ccn(Cc2ccc(Cl)cc2)n1,-7.7,-22
CC(=O)N(N=C1Sc2ccccc2C1=O)c1ccccc1,0.9,1
O=S(=O)(NN=C1CCCc2ccccc21)c1ccc(Br)cc1,7.6,-6
Cc1nn(-c2ccccc2)c(C)c1C=NNC(=O)CSc1nc2ccccc2c(=O)n1-c1ccc(Br)cc1,-0.9,0
Cc1ccc(NN=C2CCCNC2=O)cc1,-0.1,-1
# Next compounds follow.
SMILES,Sa RN4220 lethal,ugtP null kill
COc1ccc(CCCc2nnc(SCC(=O)NN=Cc3ccc(O)c(OC)c3)o2)cc1C,-2.4,-4
Cc1cc(C(=O)NN=Cc2ccc(COc3ccc([N+](=O)[O-])cc3)o2)ccc1[N+](=O)[O-],1.6,-2
ON=Cc1cc(Br)ccc1OCc1ccc(F)cc1,-1.1,74
COc1ccc(C=NN=C2CC3CCC2(C)C3(C)C)cc1O (stereo unspecified),1.1,2
Cc1ccc(Oc2ncccc2C=NOCc2ccc(Cl)cc2Cl)cc1,-14,70
CCOC(=O)c1[nH]c(C)c(C=NO)c1C,3.6,0
CCCCC1CC(C(C)=NNC(N)=O)OC1=O (stereo unspecified),-0.6,6
CCCCOc1cccc(C=NNC(=O)c2csc(C)c2C)c1,-1.1,17
Cn1c(NN=Cc2ccccc2)nc2sc3c(c2c1=O)CCC3,6.8,-2
Cc1ccc(NCc2nnc(SC(C)C(=O)NN=Cc3ccc(C)o3)n2-c2ccccc2)cc1 (stereo unspecified),-4.7,5
CC(=O)N(N=C1Sc2ccccc2C1=O)c1ccccc1C,6.0,9
CCOc1ccccc1C(=O)NN=Cc1cccc2cccnc12,-3.5,-3
CN(C)c1ccnc(-n2cccc2C=NOCc2cccc(F)c2)c1C#N,13,14
CCn1ncc(C=NNC(=O)c2ccc3c(c2)OCO3)c1C,2.4,8
